# Screening results (PubChem)
# GIV Gai3 FP: inhibitors of GIV peptide binding to Galpha-i3, primary screen, biochemical, fluorescence polarization, FITC-GIV GBA peptide, rat Galphai3; 90 min; active compounds read low; scaled: aluminum fluoride 0%, vehicle 100%; percent of control (FP), % (test concentration not listed); 0.42% of 210,000 active; Guanine nucleotide-binding protein G(i) subunit alpha-3 (Rattus norvegicus), P08753;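 active = replicate mean at 85% of control or lower, very high polarization wells dropped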;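 also: lower values mean more displacement of the GIV peptide from Galpha-i3; wells of about 15 µL received 100 nL stock; the first replicate is given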
# Target sequence (P08753 whole entry, looked up): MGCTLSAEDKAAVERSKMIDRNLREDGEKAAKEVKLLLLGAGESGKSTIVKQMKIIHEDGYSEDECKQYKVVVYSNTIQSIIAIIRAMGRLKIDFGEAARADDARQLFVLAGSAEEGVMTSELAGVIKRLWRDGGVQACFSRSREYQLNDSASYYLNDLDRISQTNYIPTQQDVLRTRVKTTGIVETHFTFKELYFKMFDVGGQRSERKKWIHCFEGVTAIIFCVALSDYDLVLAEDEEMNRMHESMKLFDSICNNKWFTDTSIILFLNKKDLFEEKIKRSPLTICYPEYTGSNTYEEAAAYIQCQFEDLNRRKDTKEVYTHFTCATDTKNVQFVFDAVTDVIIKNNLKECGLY
# HCMV NEC inh: inhibitors of HCMV UL50-UL53 interaction, biochemical, HTRF; normalized percent inhibition; inhibition, % (no concentration beside the values); 0.15% of 190,000 active; HCMV UL50-UL53 nuclear egress complex (human cytomegalovirus);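 active = both replicates at 50% or more, plus weaker picks with an unusually low signal ratio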;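 also: stock transfer was 100 nL into about 20 µL; 0% = negative control wells and 100% = wells with untagged competitor protein; inactives centre near -12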
# Sa growth inh: S. aureus growth inhibition at 42 and 30 °C, primary screen, LtaS inhibitor project, RN4220, two temperatures; AID 720641, 2013; 0.53% of 170,000 active; relative growth, % (test concentration not listed); OD600, 20 h, 42 °C; active compounds read low;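 active = growth at 42 °C up to 50% and 20 or more points under that at 30 °C, or under 10% at both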;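 also: 300 nL library stock went into each well; scaled to the means of positive and negative controls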
# Sa growth inh second temp: further read-out of Sa growth inh, marked with its call; relative growth, %; measured here: growth at 30 °C;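 optical density after 20 h as mean of two plates; 100% = untreated growth and lower means inhibition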
# Numbers without * were called inactive; x = no result given; & = joins results of further samples.
SMILES	HCMV NEC inh	Sa growth inh second temp	Sa growth inh	GIV Gai3 FP
CC(C(=O)O)n1cnc2ccccc21 (stereo not drawn)	-27.6&-21.0	83.2	119.7	101.5&101.6
CC(OC(=O)CCc1c[nH]c2ccccc12)C(=O)c1ccccc1 (stereo not drawn)	-9.0	95.1	101.7	x
CCS(=O)(=O)c1ccc2oc(=O)c(/C=C(\O)c3ccco3)nc2c1	-28.0	90.2	90.5	106.5
Cc1nnc(SCC(=O)Nc2sc3c(c2C(N)=O)CCC3)n(N)c1=O	-15.3	97.7	86.5	x
S=c1[nH]nc(CCCOc2ccc(Cl)cc2Cl)o1	-4.5	37.8	62.5	106.0
CC(=O)N1c2nc(C(C)C)nn2C2(CCCCC2)[C@@H]2CCCC[C@@H]21	3.0	90.2	110.7	102.6
COc1ccc(NC(=O)CSc2ncc3c(n2)-c2ccccc2N(Cc2ccc(C)cc2)S3(=O)=O)cc1Cl	8.7	91.9	93.0	113.4
O=C(CSc1cccc[n+]1[O-])NC(=O)NCc1ccccc1	-1.4	98.1	103.2	x
Fc1ccc(NC(=S)N2CCCCC2)cc1	-3.2	105.6	78.0	102.1
CCc1ccc(C(=O)NCc2cccs2)cc1	-0.7	92.7	108.7	x
O=C(CSc1ccc(Br)cc1)N1CCN(C(=O)c2ccco2)CC1	8.2	96.0	87.5	x
Cc1cccc(N(C)S(=O)(=O)c2cc(Br)cnc2N)c1	-9.5	83.1	113.8	103.0
CNC(=O)c1cccc(Oc2cccc(Cl)n2)c1	-10.7	78.8	119.7	x
C/C(N)=C(/C#N)C(=O)CSc1ccc2c(c1)OCCO2	10.0	94.3	97.3	x
c1cc(CN2CCCCCCC2)cs1	-4.8	101.9	81.5	104.1

# A second format for some results above.
# Results follow in this order: HCMV NEC inh | Sa growth inh second temp | Sa growth inh | GIV Gai3 FP
> COc1ccc(NC(=O)CSc2ncc3c(n2)-c2ccccc2N(Cc2ccc(C)cc2)S3(=O)=O)cc1Cl
 : 8.7 | 91.9 | 93.0 | 113.4
> c1cc(CN2CCCCCCC2)cs1
 : -4.8 | 101.9 | 81.5 | 104.1
> C/C(N)=C(/C#N)C(=O)CSc1ccc2c(c1)OCCO2
 : 10.0 | 94.3 | 97.3 | x

# Single records (already shown). Values in the order: HCMV NEC inh	Sa growth inh second temp	Sa growth inh	GIV Gai3 FP
# Profile of CCS(=O)(=O)c1ccc2oc(=O)c(/C=C(\O)c3ccco3)nc2c1 : -28.0	90.2	90.5	106.5
# Profile of Cc1nnc(SCC(=O)Nc2sc3c(c2C(N)=O)CCC3)n(N)c1=O : -15.3	97.7	86.5	x
# Profile of CC(=O)N1c2nc(C(C)C)nn2C2(CCCCC2)[C@@H]2CCCC[C@@H]21 : 3.0	90.2	110.7	102.6
# Profile of c1cc(CN2CCCCCCC2)cs1 : -4.8	101.9	81.5	104.1

# Filtered by structure, those above with a furan ring, fused or not (two)
SMILES	HCMV NEC inh	Sa growth inh second temp	Sa growth inh	GIV Gai3 FP
CCS(=O)(=O)c1ccc2oc(=O)c(/C=C(\O)c3ccco3)nc2c1	-28.0	90.2	90.5	106.5
O=C(CSc1ccc(Br)cc1)N1CCN(C(=O)c2ccco2)CC1	8.2	96.0	87.5	x

# Other structures:
SMILES	HCMV NEC inh	Sa growth inh second temp	Sa growth inh	GIV Gai3 FP
CCc1cnc2c(c1SCC(=O)NCc1ccccc1)c(=O)n(C)c(=O)n2C	x	92.3	121.9	105.2
Cc1ccc2c(c1)c1c3n2CCN(C(N)=O)C3CCC1 (stereo not drawn)	10.8	97.7	102.8	107.0
Cc1ccc(N2C(=O)c3n[nH]c(C)c3C2c2ccccc2Cl)cc1 (stereo not drawn)	0.6	97.1	80.6	110.0
O=C(c1cc(-c2ccc3c(c2)OCCO3)on1)N(Cc1ccccc1Cl)C1CCS(=O)(=O)C1 (stereo not drawn)	-14.7	x	x	99.5
Cc1ccc(N2C3CCCCCN3CC2(O)c2ccc(Cl)cc2)cc1 (stereo not drawn)	-26.6	79.2	71.8	x
Cc1noc2ncnc(N3CCCC(C(=O)NCCN4CCc5ccccc5C4)C3)c12 (stereo not drawn)	-10.8	x	x	103.4
CSc1nsc(SC)c1C(=O)N1CCSCC1	-0.5	66.0	100.9	100.3
CC(C)[C@H](NC(=O)c1ccccc1)C(=O)N1CCc2ccccc21	-10.9	95.5	113.0	x
Cc1c(Cl)cccc1NC(=O)CSc1ncc(S(=O)(=O)c2ccc(C(C)C)cc2)c(=O)[nH]1	-19.8	96.0	78.5	98.5
Cc1cc(C)c2ccc(NN)nc2c1O	x	1.9	29.7	101.1
O=C(Cc1ccc2c(c1)OCCO2)N/N=C/c1ccc[nH]1	-9.3	94.4	84.0	x
Cc1cc(OC(C)C(=O)Nc2ccc3c(c2)OCCO3)nc2c1c(C)nn2-c1ccccc1 (stereo not drawn)	-9.7	x	x	111.9
O=C1c2cccc3cccc(c23)C(=O)N1CC1CCN(CC(O)COCc2ccc3c(c2)OCO3)CC1 (stereo not drawn)	-96.2	x	x	95.8
COc1cccc(C(=O)COc2nc(-c3cccs3)cc(-c3ccco3)c2C#N)c1	19.6	101.8	113.7	109.1
COc1ccc(NC(=O)c2nnn(CC(=O)Nc3cc(C)cc(C)c3)c2N)c(OC)c1	-2.1	81.8	77.2	110.1
COC(=O)C(C)N(c1ccc(C)cc1)S(C)(=O)=O (stereo not drawn)	-0.2	109.2	101.1	104.5
Nc1nc2n(n1)C(=O)CC(c1ccccc1)N2 (stereo not drawn)	0.4	96.4	95.1	101.3
Cc1ccccc1-c1nc(CSc2nc3c(c(=O)[nH]2)CCC3)c(C)o1	x	81.1	83.4	103.8
O=C(Cn1nc(-c2ccco2)ccc1=O)NCCc1ccccc1	-73.9	93.5	110.5	97.3
CCOC(=O)Cc1nn(Cc2ccccc2)c(=O)c2ccccc12	7.4	77.4	99.6	99.1
O=C(O)c1cccnc1SCC(=O)N1c2ccccc2CCc2ccccc21	x	82.2	96.1	104.2
O=C(CSc1ncnc2c1sc1ccccc12)NC1CCCCC1	x	92.3	125.7	102.8
Cc1ccc(C(O)COC2=NCNc3cc(Cl)ccc32)cc1 (stereo not drawn)	12.5	100.5	120.5	100.4
N#CC1=C(N)C(C#N)(C#N)C(C2C=CCCC2)C2CCCC=C12 (stereo not drawn)	-16.6	26.9	46.7	115.4
CSc1ccc(-c2noc(CSc3ccc(-c4ccc(Br)cc4)nn3)n2)cc1	-11.0	x	x	104.1
COCCNc1cc(C)nc2c(C)c(-c3ccc(OC)c(OC)c3)nn12	-33.7	x	x	102.8
O=C(Oc1ccc2c(=O)ccoc2c1)c1ccc(Cl)cc1Cl	-3.6	95.2	107.0	110.7
CCOC(=O)c1ccc(NC(=O)Cn2c(=O)cc(C(F)(F)F)c3c(C)nn(C)c32)cc1	x	87.6	85.8	102.6
CC(CNC(=O)CCn1c(=O)c2cccn2c2ccc(F)cc21)c1ccccc1 (stereo not drawn)	-4.0	79.4	121.8	101.5
CC(C)Nc1cc(Br)c2noc3c2c1C(=O)c1ccccc1-3	x	85.7	95.7	-54.6*
COC(=O)c1cc2oc3ccccc3c2n1Cc1nc(-c2cccc(Cl)c2)oc1C	13.9	98.1	98.5	99.2
COc1ccc(S(=O)(=O)NC(C)(C)CO)cc1-c1nnc2c3ccccc3c(C)nn12	10.0	97.2	115.5	103.2
CC(=O)Oc1ccccc1C(=O)Nc1ccc(OC(F)F)cc1	-11.4	-0.3*	4.2*	109.1
Cc1ccc(Nc2c3c(nc4nc(-c5cccs5)nn24)CCCC3)cc1F	x	85.0	90.7	103.7
COc1ccc(NC(=O)c2c(C)oc3ccc(O)c(CN4CCN(C)CC4)c23)cc1Cl	-2.9	93.0	105.4	103.1
Cc1ccc(C)c(-c2cc(C)ncc2C)c1	12.5	90.1	85.0	110.0
O=C(N/N=C/c1ccccc1O)C1(O)c2ccccc2-c2ccccc21	-35.5	76.7	82.7	102.0
O=C(NCc1ccc2c(c1)OCO2)c1ccc(CS(=O)(=O)c2ccc(Br)cc2)o1	5.8	101.3	88.6	104.0
O=C(NC1CCCCC1)c1noc2c1CCCC2	0.9	91.2	109.2	99.7
CCC1CCCCN1CCCNC(=O)c1ccc2c(c1)N(Cc1ccccc1)C(=O)c1ccccc1S2(=O)=O (stereo not drawn)	-30.5	67.9	99.1	105.9
O=C(C1CC(c2ccc(F)cc2)=NO1)N1CCCC1 (stereo not drawn)	-5.5	90.8	85.8	98.1
CCN(CC)c1ccc(NC(=O)COC(=O)Cc2ccc(Cl)cc2)cc1	-15.0	92.5	106.2	x
NC(=O)c1cc(-c2ccccc2)nc2ccc(Br)cc12	-6.9	87.5	85.5	96.6
CC1CCCN(C(=O)CN(C)S(=O)(=O)c2ccc3c(c2)CC(C)N3C(=O)C2CC2)C1 (stereo not drawn)	-10.1	x	x	110.3
O=C(COC(=O)Cn1cnc2ccccc2c1=O)NCc1ccccc1Cl	-8.5	87.3	75.4	x
Cc1ccc(-c2nnc(SCc3ccccc3C#N)o2)cc1	-13.4	90.7	97.9	104.2
CC(=O)Nc1ccc(NC(=O)CCc2c(C)nc3c(c(C)nn3-c3ccc(C)cc3)c2C)cc1	9.0	94.8	96.1	103.0
CCc1ccc(Nc2cc(C(=O)NCCCN(C)c3ccccc3)c3ccccc3n2)cc1	x	94.4	108.9	103.7
O=CN1CCN(c2nc(-c3ccccc3)cs2)CC1	-18.6	98.1	106.3	105.6
O=C(c1cccs1)N1N=C(c2cccs2)CC1c1ccc(F)cc1 (stereo not drawn)	-16.0	x	x	104.4
Cc1ccc(CNC(=O)Cn2c(SCC(=O)Nc3ccc(F)cc3)nc3ccccc32)cc1	x	74.3	120.9	106.4
COc1cccc(NC(=O)C2CCN(c3nnc(C)c4c(C)n(-c5ccccc5)nc34)CC2)c1	x	95.8	122.0	102.5
CCCCOc1ccc(S(=O)(=O)N2CCN(c3ccccc3OCC)CC2)cc1	10.4	100.4	93.6	110.5
Cc1ccc(N2CC(NC(=O)c3ccc(S(=O)(=O)N4CCOCC4)cc3)CC2=O)cc1C (stereo not drawn)	x	99.5	125.2	106.3
O=C(Nc1cccc(F)c1)C1Nc2cc(F)ccc2S(=O)(=O)N1 (stereo not drawn)	1.4	x	x	102.6
CCC(=O)N1c2ccc(S(=O)(=O)NCc3ccc(F)cc3)cc2CC1C (stereo not drawn)	2.3	86.3	106.6	104.8
O=C(NCCc1ccccc1)C1CCCC1	0.3	96.7	102.5	103.2
Fc1ccc(N2CCn3c(SCc4ccccc4)nnc32)cc1	-34.3	x	x	100.2
Cc1nonc1NC(=O)c1ccccc1F	8.3	x	x	97.8
Cn1cccc1C(=O)NC(=O)CSc1nc2ccccc2s1	-40.5	100.0	100.2	x

# Carrying on:
SMILES	HCMV NEC inh	Sa growth inh second temp	Sa growth inh	GIV Gai3 FP
Cc1cc2nc(CN3CCCCC3)cc(=O)n2o1	-5.7	78.8	94.2	107.0
COc1ccc(CNCCNC(=O)c2ccncc2)c(OC)c1OC	7.9	104.5	75.2	106.2
CCn1c(SCC(=O)N(C2CCCCC2)C2CCCCC2)nnc1-c1cc2cccc(OC)c2o1	-17.9	93.0	104.9	102.4
Cc1ccccc1OCc1nc2ccccc2n1Cc1ccccc1Cl	-19.2	87.0	111.8	100.1
CCOC(=O)c1cnc2[nH]c3ccccc3n2c1=O	-19.7	82.9	106.5	97.3
CSc1ccccc1NC(=O)CN1CC(C)OC(C)C1 (stereo not drawn)	8.0	93.6	89.6	x
CN1CCN(c2ccccc2NC(=O)Cc2cn(C)c3ccccc23)CC1	x	79.0	85.9	101.1
CCCN1C(=O)c2ccccc2NC1c1ccc(OC)c(COc2ccccc2F)c1 (stereo not drawn)	-6.9	x	x	103.4
O=C(Cn1c(=O)n(CC2CS2)c2ccccc21)c1ccccc1 (stereo not drawn)	17.4	115.9	99.7	107.0
CCCCN1C(=O)Cc2c1nc(N)c1c(N)nc(N(CCC)CCC)c(C#N)c21	-25.8	88.5	92.8	x
O=C(NCCCn1ccnc1)c1noc2c1CCCC2	x	86.3	98.3	97.0

# Rows are unselected; any-hit rate near 0.8%.
